# Compound activity: PubChem, National Center for Advancing Translational Sciences (NCATS)
# hNpr1 antagonist: antagonists of human natriuretic peptide receptor Npr1. Potency, µM (doses to about 46.3 µM), inactives show at the top dose activity change, negative = inhibition, actives largely listed as inhibitors. hit rate 1.6% among 76,000. HEK293 hNpr1 GloSensor cGMP, ANP-stimulated luminescence. P16066; active = well fitted inhibition curve with a large enough effect; inconclusive = small, poorly fitted or top-dose-only effect; inactive = no such curve, though single readings can be large or run the other way;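 note: nearly all actives have a fitted effect of over 60% in size; nearly all hits also lower the signal before the agonist is added; a reference antagonist and vehicle were the controls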
# Target sequence (P16066 whole entry, looked up): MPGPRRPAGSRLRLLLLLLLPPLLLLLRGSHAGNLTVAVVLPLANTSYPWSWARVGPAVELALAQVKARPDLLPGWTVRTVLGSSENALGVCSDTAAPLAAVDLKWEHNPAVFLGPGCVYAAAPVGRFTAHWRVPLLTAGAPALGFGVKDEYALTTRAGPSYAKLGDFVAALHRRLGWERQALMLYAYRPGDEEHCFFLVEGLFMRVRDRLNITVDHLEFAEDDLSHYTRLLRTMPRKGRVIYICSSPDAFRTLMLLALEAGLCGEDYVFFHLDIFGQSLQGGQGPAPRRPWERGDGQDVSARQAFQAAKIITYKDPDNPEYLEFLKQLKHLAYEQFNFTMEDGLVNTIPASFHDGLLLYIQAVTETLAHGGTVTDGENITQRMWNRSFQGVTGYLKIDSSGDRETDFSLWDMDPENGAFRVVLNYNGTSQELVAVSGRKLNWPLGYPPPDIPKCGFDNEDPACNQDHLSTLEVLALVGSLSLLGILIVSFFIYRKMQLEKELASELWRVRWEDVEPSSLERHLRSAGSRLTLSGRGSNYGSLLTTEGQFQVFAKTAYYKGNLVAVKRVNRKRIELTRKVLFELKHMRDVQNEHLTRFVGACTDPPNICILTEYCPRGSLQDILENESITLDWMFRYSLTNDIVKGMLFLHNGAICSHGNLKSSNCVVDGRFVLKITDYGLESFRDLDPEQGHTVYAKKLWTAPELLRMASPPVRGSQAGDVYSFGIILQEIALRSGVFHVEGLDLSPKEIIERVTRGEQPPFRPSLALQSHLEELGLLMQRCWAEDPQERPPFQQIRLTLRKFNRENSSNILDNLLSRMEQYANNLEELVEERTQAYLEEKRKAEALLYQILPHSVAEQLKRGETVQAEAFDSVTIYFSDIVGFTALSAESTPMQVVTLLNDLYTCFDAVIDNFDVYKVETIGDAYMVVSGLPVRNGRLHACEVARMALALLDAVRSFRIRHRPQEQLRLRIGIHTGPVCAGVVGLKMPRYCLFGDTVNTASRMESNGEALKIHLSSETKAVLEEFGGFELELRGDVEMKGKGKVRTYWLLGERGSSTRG
#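 HEK293 cells stably expressing human Npr1 and cGMP GloSensor pGS-40F, loaded 2 h with 2% GloSensor reagent, given compound 30 min at room temperature. Luminescence read before and 20 min after 0.1 nM hNppA.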
# Starred values were filed as active, the others as inactive; u = inconclusive; & = joins results of further samples; [ ] = remark or other dose. % is set by controls: 0 for no effect and ±100 for the full control effect; potency is the fitted concentration of half-maximal effect. Some of the compounds tested; rates above refer to the full screens.
item	Molecule	hNpr1 antagonist
1	CC1=C[C@@H](CNC(=O)c2ccccc2)[C@H](C(C)C)C[C@H]1CC(=O)NCc1cccnc1	-1.2%[70.6 µM]
2	O=C(Nc1ccc(F)cc1)c1cnn2ncccc12	5.9%[70.6 µM]
3	O=C(NC[C@H]1O[C@@H](CC(=O)N2CCN(c3ccccn3)CC2)[C@H](O)[C@@H]1O)Nc1cccc(F)c1	2.0%
4	COCCNC(=O)[C@H]1C[C@H](Oc2cccnc2)CN1S(=O)(=O)c1ccccc1	-1.6%
5	Cc1nn(Cc2ccccc2)c(C)c1[C@@H]1C=C[C@@H](NC(=O)CCCC(=O)O)C1	2.6%[70.6 µM]
6	Cc1ccc(NC(=O)C2CCN(C(=O)c3ncn4c3COC(c3ccc(F)cc3)C4)CC2)c(Cl)c1 (configuration not stated)	-24.5%
7	CCN(CC)C(=O)c1cc2c(n1C)CCN(Cc1ccc(F)cc1)C2	4.2%
8	O=C(N1CCC(n2cc(-c3nc(-c4ccccc4)no3)nn2)C1)C1(c2ccccc2)CC1 (configuration not stated)	u
9	COCc1nc(C2CCCN(C(=O)CC3CCCCC3)C2)no1 (configuration not stated)	-7.3%
10	Cc1ncoc1C(=O)N1CCC(c2noc(-c3cnccn3)n2)C1 (configuration not stated)	-2.7%
11	NC(Cc1ccccc1)C(=O)N1CCN(c2ccccn2)CC1 (configuration not stated)	-6.7%
12	O=C1C(N2CCN(S(=O)(=O)c3cccs3)CC2)CCN1Cc1cccnc1 (configuration not stated)	-1.0%
13	CN(C)[C@@H]1[C@@H](NC(=O)CCn2cnc3ccccc3c2=O)[C@H]2CCO[C@H]21	12.5%
14	COCCOC(=O)C1=C(C)N=C2SC=C(CC(=O)N3CCCCC3C)N2C1c1ccccc1 (configuration not stated)	-9.3%
15	CC(C)C(=O)N1CC(c2nnc(-c3ccncc3)o2)C2(CCOCC2)C1 (configuration not stated)	-0.2%
16	COCCOC1CN(C2CCN(Cc3ccncc3)CC2)C12CCCCC2 (configuration not stated)	2.0%
17	COc1ccc(-c2ccc3c(c2)C(=O)N2CCN(C(=O)c4ccccc4)C[C@@H]2C(=O)N3)cc1	1.6%
18	Cc1cccc(CCNC(=O)C2N(C(C)C)C(=O)C23CCCC3)c1 (configuration not stated)	-2.6%
19	O=C1CCCCC(C(=O)N2CC=C(c3ccccc3)CC2)N1 (configuration not stated)	4.9%
20	O=C(c1ccccc1)N1CCCN(c2cc(-c3ccc(Cl)cc3)[nH]n2)CC1	-17.6%
21	COc1ccc(NC(=O)CN2C(=O)NC(c3ccc(Cl)cc3)C3=C2COC3=O)cc1Cl (configuration not stated)	-21.0%
22	COc1cccc(-c2cc3c(=O)n(CCNC(=O)Cc4c[nH]c5ccccc45)ccn3n2)c1	-2.4%
23	Cc1noc(C)c1-c1cc2c(cc(-c3ccccc3)n2C)c(-c2cccnc2)n1	-23.9%[70.6 µM]
24	Cc1ccc(S(=O)(=O)Cc2noc([C@@H]3C[C@@H](O)CN3Cc3cccc(C#N)c3)n2)cc1	-12.3%
25	Cc1cc(C)c(C(=O)NCC(N)=O)c(=O)[nH]1	6.2%
26	COc1ccc(-c2ccc3ncc(Nc4ccccc4F)n3n2)cc1OC	-0.1%[70.6 µM]
27	CCN(C(=O)CN1C(=O)NC2(CCOCC2)C1=O)c1cccc(C)c1	11.0%
28	O=C1CO[C@H](c2ccc(NS(=O)(=O)c3cccc(F)c3)cc2)[C@@H](CO)N1Cc1ccncc1	3.3%
29	O=C(c1cn[nH]c1)N1CC2(C1)CN([S+](=O)([O-])c1ccc(OC(F)(F)F)cc1)CC2COc1ccccc1 (configuration not stated)	u
30	CN(C)C[C@@H]1CN(c2ncccn2)C[C@H]1NC(=O)c1cc2ccccc2[nH]1	4.3%

# Reprinted from the part before: 3 entries, then new ones.
item	Molecule	hNpr1 antagonist
28	O=C1CO[C@H](c2ccc(NS(=O)(=O)c3cccc(F)c3)cc2)[C@@H](CO)N1Cc1ccncc1	3.3%
29	O=C(c1cn[nH]c1)N1CC2(C1)CN([S+](=O)([O-])c1ccc(OC(F)(F)F)cc1)CC2COc1ccccc1 (configuration not stated)	u
30	CN(C)C[C@@H]1CN(c2ncccn2)C[C@H]1NC(=O)c1cc2ccccc2[nH]1	4.3%
31	Cc1nn(-c2ccc(C(C)(C)C)cc2)c(C)c1[C@@H]1C=C[C@@H](NC(=O)CCC(=O)O)C1	0.7%[70.6 µM]
32	COC(=O)c1cn([C@H]2CO[C@H]3[C@@H]2OC[C@@H]3NC(=O)NC2CCCCC2)nn1	-0.5%[70.6 µM]
33	Cc1ccc(-c2noc([C@@H]3Cc4nc[nH]c4CN3C(=O)Nc3ccc(Cl)cc3)n2)cc1	u
34	COc1ccc(-c2[nH]nc3ncc(C(=O)Nc4ccn(C)n4)nc23)c(C)c1	-1.1%[70.6 µM]
35	CCc1cc(=O)n(CC(=O)Nc2ccc(OC)c(OC)c2)c(N2CCOCC2)n1	-7.7%
36	CCOC(=O)c1ccc(NC(=O)CC2CCCCN(C)C2=O)cc1 (configuration not stated)	-1.6%
37	Cc1cn2nc(C(=O)Nc3ccc4c(c3)OCCO4)cc2c(N2CCSCC2)n1	-26.8%
38	CCc1ccccc1NC(=O)C1c2ccccc2C(=O)N(CCOC)C12CCCC2 (configuration not stated)	-7.1%
39	COCC1CN(C)CC12CCN(C(=O)CC1=CCCCC1)CC2 (configuration not stated)	-1.9%
40	O=C(O)c1ccccc1CN1CC(COc2ccccc2)C2(C1)CN(c1ccccc1)C2 (configuration not stated)	-3.6%[70.6 µM]
41	O=C(NCCCN1CCCCC1)C1CN(S(=O)(=O)c2cccnc2)CC12CCCCC2 (configuration not stated)	4.5%
42	CN1CCC(N[C@H]2C[C@@H](Cc3cc(C(C)(C)C)on3)C2(C)C)CC1	1.6%[70.6 µM]
43	COc1cccc(CCC(=O)N2C[C@@H](C(N)=O)[C@H](c3nc(C)no3)C2)c1	-2.9%
44	COc1ccc(C2Cn3nnc(C(=O)NCc4cccc(C(F)(F)F)c4)c3CO2)cc1 (configuration not stated)	-13.6%
45	CCOCCCNC(=O)N1CCC2(CC1)CC(N(Cc1ccc(F)cc1)C1CC1)CCO2 (configuration not stated)	-8.8%
46	CN1CCN(c2ccc(-c3cccc(NC(=O)C4CCCCC4)c3)nn2)CC1	-11.1%
47	COCCNC(=O)[C@@H]1CCC[C@@H](NC(=O)c2ccccc2)CN(C)C(=O)C1	-7.8%[70.6 µM]
48	COc1cccc(-c2cc(C(=O)O)cc(S(=O)(=O)N3CCSCC3)c2)c1	11.0%
49	COCC(=O)N[C@@H]1CNCC[C@@H]1c1nc(C)no1	2.2%
50	Cn1nc(-c2nncn2-c2ccccc2)c2c1CCN(C(=O)CN1CCCCCC1)C2	1.9%
51	CCn1ccc(C(=O)NCC2Cn3cccc3CN2Cc2ccccc2)n1 (configuration not stated)	-7.8%
52	CCc1cc(=O)n(CC(=O)Nc2cc(C)ccc2OC)c(-c2ccccc2)n1	-22.1%
53	COc1ccccc1N1CCN(C(=O)CN2C(=O)NC(c3ccc(C)cc3)C3=C2COC3=O)CC1 (configuration not stated)	-1.0%
54	Cc1ccc(C)c(Cn2ccn3nc(-c4ccccc4)c(CO)c3c2=O)c1	u
55	CCn1ccc(C(=O)N2CCC(N3C(=O)C(OCC4CC4)C34CCOCC4)CC2)n1 (configuration not stated)	-6.9%
56	CN(C)CCN(C)[C@@H]1[C@H](O)[C@H](CO)O[C@@H]1CNC(=O)c1cccc(F)c1	-1.1%
57	COc1ccc(-c2noc(CN(CC3CCC(=O)N3)C(C)C)n2)c(OC)c1OC (configuration not stated)	17.7%
58	O=c1ccc(-c2cc(-c3cccc4cn[nH]c34)cn3cncc23)c[nH]1	-2.4%[70.6 µM]
59	COc1cccc(CNCC2CNCCO2)c1OCCN1CCOCC1 (configuration not stated)	6.5%
60	Cc1ccc(C)c(C(=O)N2CCN(c3cc(-c4ccccc4)[nH]n3)CC2)c1	-25.9%
61	CC(C)(Oc1nn(CCOc2ccccc2)c2ccccc12)C(=O)NCCCn1ccnc1	1.2%
62	CN1CCC2(CC1)CN(C(=O)c1cncc(Br)c1)Cc1ccccc1O2	-8.2%
63	C[C@H]1[C@@H]2[C@@H](O)C([C@H](C)C(=O)NCc3ccccc3)CC[C@@]2(C)CC[C@@H]1NC(=O)C1CCCCC1 (some centres not stated)	1.1%
64	CCCCCNc1ncnc2c1CN(c1ccc(Cl)cc1)C(=O)CN2C	-1.7%
65	COCCOCC(=O)N1CC(Oc2ccc(-c3noc(-c4ccccc4)n3)cc2)C1	10µM*
66	Cc1ccc(N2CCN(C(=O)c3cc4n(n3)CC(c3ccc(Cl)cc3)OC4)CC2)c(C)c1 (configuration not stated)	-29.0%
67	Fc1ccc(CN2CCn3c(nnc3C3CCCNC3)C2)cc1 (configuration not stated)	-14.4%&11.4%[70.6 µM]
68	O=C(C1CC(=O)N(c2n[nH]c3ccccc23)C1)N1CCN(c2ccc(Cl)cc2)CC1 (configuration not stated)	-22.6%
69	O=C(NCCc1ccc(Cl)cc1)c1nc(-c2cccnc2)c2ccccn12	-3.1%
70	COCC(=O)NC[C@H]1Cn2c(-c3ccc(Cl)cc3)cnc2CO1	1.3%[70.6 µM]
71	COc1ccccc1NC(=O)N1CCc2cc(OC)c(OC)cc2C1CNC(=O)C(C)C (configuration not stated)	-0.9%
72	CN(CC(=O)N1CCC(C)(c2noc(C3CC3)n2)CC1)S(=O)(=O)c1ccc2c(c1)oc(=O)n2C	18.2%
73	Cc1ccccc1N1CCN(C2CCCN(C(=O)c3ccc(-c4ccco4)cc3)C2)CC1 (configuration not stated)	0.4%
74	COc1cccc(N2CCN(C(=O)c3cc4n(n3)CC(c3ccc(Cl)cc3)OC4)CC2)c1 (configuration not stated)	15.8µM*
75	Cc1cnc(C(=O)N2CCOc3ccc(CN4CCCCCC4)cc3C2)cn1	1.7%

# Given field by field: part of the list above
(73) Cc1ccccc1N1CCN(C2CCCN(C(=O)c3ccc(-c4ccco4)cc3)C2)CC1 (configuration not stated)
  hNpr1 antagonist = 0.4%
(74) COc1cccc(N2CCN(C(=O)c3cc4n(n3)CC(c3ccc(Cl)cc3)OC4)CC2)c1 (configuration not stated)
  hNpr1 antagonist = 15.8µM*

# New compounds follow:
item	Molecule	hNpr1 antagonist
76	CC(C)NC(=O)C[C@@H]1O[C@H](CNC(=O)C2CC2)[C@@H](O)[C@H]1O	-3.2%[70.6 µM]
77	Cc1noc(C)c1-c1cc(-c2ccccc2)cn2cncc12	-3.2%[70.6 µM]
78	CCN1C(=O)C2CC3(CCN(Cc4ccc(C)s4)CC3)CN2C1=O (configuration not stated)	-7.9%
79	O=C(N[C@@H]1CN(c2ncccn2)C[C@H]1CO)c1cc2ccccc2[nH]1	2.7%
80	CCNC(=O)N1CCC[C@@H](O)[C@H](NC(=O)c2ccc(OCCOC)cc2)C1	0.7%[70.6 µM]
81	Cc1ccc2cc(CCC(=O)NCc3ccco3)c(=O)[nH]c2c1	-7.4%
82	COC[C@@H]1CN(C(=O)c2cccc(C)c2)C[C@H]1c1nc(C2CC2)no1	2.4%
83	COc1ccccc1NC(=O)NC[C@H]1O[C@H](Cc2cc(C(C)(C)C)on2)CC[C@@H]1O	-6.0%[70.6 µM]
84	Cc1nn(C)c(C)c1S(=O)(=O)N[C@@H]1COCC[C@H]1OCc1ccccn1	0.7%
85	Cc1noc(-c2ccc3c(c2)OCO3)c1C(=O)NCCC(c1ccccc1)c1ccccc1	-17.3%
86	COc1ccc(CN2C[C@@H]3C(C(=O)Nc4ccccc4)=NO[C@@H]3C2)cc1OC	-9.5%[70.6 µM]
87	c1ccc(CO[C@@H]2CO[C@H]3[C@@H]2OC[C@@H]3n2nnnc2SCc2ccco2)cc1	22.4µM*
88	CCOC(=O)CC1CCCCN1C(=O)CCC1(Cc2ccc(F)cc2)CCC(=O)N1 (configuration not stated)	0.4%
89	Cc1nc(-c2ccccc2OC2CN(C(=O)c3cccc4[nH]ccc34)C2)no1	-22.4%
90	COc1ccc(CNC(=O)N2CCC3(CC2)CC(N(C(C)=O)C2CC2)CCO3)cc1 (configuration not stated)	-4.7%
91	O=C(C1CC1)N1CCC2(CC1)CC(N(Cc1ccccc1)C1CC1)CCO2 (configuration not stated)	11.9%
92	CCN(Cc1ccccn1)C(=O)c1csc2nc(-c3cc(C)ccc3C)cn12	2.8%
93	CC(C)CN1C(=O)COC[C@@H]1[C@H](O)c1ccc(NC(=O)C2CCC2)cc1	-2.1%[70.6 µM]
94	Cc1noc([C@@H]2CC(F)(F)CN2C(=O)c2ncccc2F)n1	-3.7%
95	COc1ccc(CN2C(=O)COC[C@H]2C(=O)Nc2ccc(Cl)cc2)c(OC)c1	-18.2%
96	COc1ccc2cc(C(=O)N3CCC(Cc4ccc(C(=O)NC5CC5)cc4)CC3)[nH]c2c1	u
97	O=C(NCCc1ccncc1)C1CN(Cc2cccnc2)CC12CCOCC2 (configuration not stated)	5.7%
98	OCCn1cnc2cc(-c3n[nH]c(C4CCOC4)n3)ccc21 (configuration not stated)	-2.7%
99	COC(=O)c1cccc(NC(=S)N[C@@H]2C=C[C@@H](c3c(C)nn(-c4ccc(C(C)C)cc4)c3C)C2)c1	u
100	O=C(c1csc(Cc2ccccc2)n1)N1CC[C@H](CO)[C@@H](O)C1	2.1%
101	COc1cc(=O)n2c(c1C(=O)Nc1ccc(F)c(Cl)c1)CCCC2	-2.3%
102	CCn1cc(CN2CCCCC2c2nc(CCOCC3CCOCC3)no2)cn1 (configuration not stated)	-10.3%
103	O=C(CCn1ccn2nc3c(c2c1=O)CCCC3)NCCCc1ccccc1	-1.2%
104	CCn1nc(C)c(CNC(=O)c2ccc(N3CC4CC(C3)[C@H]3CCCC(=O)N3C4)nc2)c1C (some centres not stated)	0.0%
105	C[C@H]1[C@@H]2[C@@H](O)C([C@H](C)C(=O)NCc3ccc(F)cc3)CC[C@@]2(C)CC[C@@H]1NC(=O)c1ccccc1 (some centres not stated)	-1.6%
